Screening results as filed in PubChem.
TNAP inh noacc = inhibitors of human TNAP without phosphate acceptor | inhibition, % at 20 µM | 0.26% of 200,000 active | P05186 | purified TNAP, CDP-star luminescence, 30 min | AID 1012;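 active = tissue-nonspecific alkaline phosphatase inhibition above about 50% at 20 µM in the single-dose screen, limit read from the data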;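 also: 0% = DMSO negative control and 100% = EDTA positive control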
Target sequence (P05186 whole entry, looked up): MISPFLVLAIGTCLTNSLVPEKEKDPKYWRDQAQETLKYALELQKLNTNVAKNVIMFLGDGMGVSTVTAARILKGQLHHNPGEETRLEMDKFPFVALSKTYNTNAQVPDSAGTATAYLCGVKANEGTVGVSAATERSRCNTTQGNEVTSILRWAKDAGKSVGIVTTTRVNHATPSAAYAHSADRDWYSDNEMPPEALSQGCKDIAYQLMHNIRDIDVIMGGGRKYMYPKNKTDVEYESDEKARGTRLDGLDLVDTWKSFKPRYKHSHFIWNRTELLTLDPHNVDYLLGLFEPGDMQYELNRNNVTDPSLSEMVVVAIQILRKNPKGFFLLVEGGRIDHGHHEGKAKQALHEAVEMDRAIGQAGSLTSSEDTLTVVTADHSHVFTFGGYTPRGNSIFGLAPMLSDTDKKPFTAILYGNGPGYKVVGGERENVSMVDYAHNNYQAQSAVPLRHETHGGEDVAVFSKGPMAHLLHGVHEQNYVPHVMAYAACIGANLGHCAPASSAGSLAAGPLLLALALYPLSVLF
TNAP act hiacc = activators of human TNAP at high phosphate acceptor concentration | P05186 | purified TNAP, CDP-star luminescence, 1 M DEA, 30 min; hits give high values; 0 = EDTA background, 1 = DMSO-only activity | activation factor at 20 µM | 200,000 tested, under 10 active | AID 1136;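 active = activation factor at least 2 at 20 µM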
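system = human TNAP | amount = enzyme diluted 1/800 final | reagent = 100 µM CDP-star substrate | signal = luminescent substrate turnover signal | dosing = one dose, 20 µM | benchmarks = EDTA negative control, DMSO positive control | measure = activation factor | timing = 30 min reaction, room temperature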
Efa HMGR inh = inhibitors of class II HMG-CoA reductase from Enterococcus faecalis; purified E. faecalis HMGR, NADPH absorbance 340 nm kinetic; inhibition, % at 10 µM; 0.41% of 190,000 active;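 active = inhibition above a set limit, the median over all tested compounds plus 3 SD, cut at about 9.5% in these data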;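 also: enzyme runs in reverse so mevalonate oxidation gives rising NADPH absorbance; 0% = complete reaction with DMSO and 100% = background rate lacking mevalonate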
bIAP inhibitor = intestinal alkaline phosphatase (bovine) inhibition | purified bovine IAP, CDP-star luminescence, 30 min | 190,000 tested, under 10 active | inhibition, % at 20 µM;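 active = over 50% inhibition of intestinal alkaline phosphatase at 20 µM in the single-dose screen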
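Assay system – bovine IAP enzyme · Quantity – bovine IAP at 1/65,000,000 final dilution · Detection – CDP-star luminescence signal · Times – 30 min reaction at room temperature · Also added – CDP-star substrate at 30 µM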
TNAP inh hiacc = inhibitors of human TNAP at high phosphate acceptor concentration; AID 1135; purified TNAP, CDP-star luminescence, 1 M DEA; 0.03% of 200,000 active; inhibition, % at 20 µM;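 active = over 50% inhibition of tissue-nonspecific alkaline phosphatase at 20 µM in the single-dose screen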;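 also: plate controls were DMSO wells for no effect and EDTA-quenched wells as full inhibition for full effect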
bIAP act = increases bovine intestinal alkaline phosphatase activity; purified bovine IAP, CDP-star luminescence, 30 min; hits give high values; fold of DMSO-control signal, blank-subtracted; activation factor at 20 µM; 0.17% of 200,000 active; AID 1016;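 active = activation factor of 2 or more at 20 µM, a signal rise over negative controls twice the positive control's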
* = called active by the depositor; & = joins results of further samples.

How did CC(C)NCC(O)COc1cccc2[nH]ccc12 (configuration not stated) do in these assays?
TNAP inh noacc: -14; TNAP act hiacc: 1.1; Efa HMGR inh: 2; bIAP inhibitor: 6; TNAP inh hiacc: -8; bIAP act: 0.9

What do the screens show for `O=c1c2oc3ccccc3c2[nH]c(=S)n1-c1ccccc1`?
TNAP inh noacc: -7; TNAP act hiacc: 1; Efa HMGR inh: 0; bIAP inhibitor: 25; TNAP inh hiacc: 4; bIAP act: 0.7

Results for Cc1ccc2c(c1)c(Sc1ccccc1)c(CC(=O)O)n2C ?
TNAP inh noacc: 1; TNAP act hiacc: 1; Efa HMGR inh: 0; bIAP inhibitor: 19; TNAP inh hiacc: 0; bIAP act: 0.8

What do the screens show for `CO/N=C(\C(=O)N[C@@H]1C(=O)N2C(C(=O)O)=C(COC(C)=O)CS[C@H]12)c1csc(N)n1` (stereo in doubt)?
TNAP inh noacc: -8; TNAP act hiacc: 1; Efa HMGR inh: -13; TNAP inh hiacc: 1; bIAP act: 0.4

What do the screens show for `COc1ccc2c(c1OC)C(=O)O[C@@H]2[C@H]1c2c(cc3c(c2OC)OCO3)CCN1C`?
TNAP inh noacc: -7; TNAP act hiacc: 1; Efa HMGR inh: -11; bIAP inhibitor: 9; TNAP inh hiacc: 1; bIAP act: 0.9

How did CC(C)(Oc1ccc(CCNC(=O)c2ccc(Cl)cc2)cc1)C(=O)O do in these assays?
TNAP inh noacc: -4; TNAP act hiacc: 1; Efa HMGR inh: -1; bIAP inhibitor: 8; TNAP inh hiacc: 2; bIAP act: 0.9

What do the screens show for `CCN(CC)CCOC(=O)C1(C2CCCCC2)CCCCC1`?
TNAP inh noacc: -12; TNAP act hiacc: 1.1; Efa HMGR inh: -2; bIAP inhibitor: 8; TNAP inh hiacc: -6; bIAP act: 0.9

Results for CN1CCN(C2=Nc3cc(Cl)ccc3Nc3ccccc32)CC1 ?
TNAP inh noacc: -9; TNAP act hiacc: 1; Efa HMGR inh: -7; bIAP inhibitor: 4; TNAP inh hiacc: 0; bIAP act: 1

What do the screens show for `O=C(O)COCCN1CCN(C(c2ccccc2)c2ccc(Cl)cc2)CC1` (configuration not stated)?
TNAP inh noacc: -8; TNAP act hiacc: 1.1; Efa HMGR inh: -4; bIAP inhibitor: 0; TNAP inh hiacc: -6; bIAP act: 1

What do the screens show for `O=C(NC(CO)C(O)c1ccc([N+](=O)[O-])cc1)C(Cl)Cl` (configuration not stated)?
TNAP inh noacc: -6; TNAP act hiacc: 1; Efa HMGR inh: -2; bIAP inhibitor: -4; TNAP inh hiacc: 1; bIAP act: 1

Part of the list above in order of heavy-atom count, high to low:
What do the screens show for `COc1ccc2c(c1OC)C(=O)O[C@@H]2[C@H]1c2c(cc3c(c2OC)OCO3)CCN1C`?
TNAP inh noacc: -7; TNAP act hiacc: 1; Efa HMGR inh: -11; bIAP inhibitor: 9; TNAP inh hiacc: 1; bIAP act: 0.9

Results for CN1CCN(C2=Nc3cc(Cl)ccc3Nc3ccccc32)CC1 ?
TNAP inh noacc: -9; TNAP act hiacc: 1; Efa HMGR inh: -7; bIAP inhibitor: 4; TNAP inh hiacc: 0; bIAP act: 1

What do the screens show for `O=c1c2oc3ccccc3c2[nH]c(=S)n1-c1ccccc1`?
TNAP inh noacc: -7; TNAP act hiacc: 1; Efa HMGR inh: 0; bIAP inhibitor: 25; TNAP inh hiacc: 4; bIAP act: 0.7

Next section.
How did CCN(CC)C(=O)[C@]1(c2ccccc2)C[C@@H]1CN do in these assays?
TNAP inh noacc: -13; TNAP act hiacc: 1.1; Efa HMGR inh: 7; bIAP inhibitor: 6; TNAP inh hiacc: -7; bIAP act: 0.9

How did N#Cc1ccccc1CSc1nc(O)cc(=O)[nH]1 do in these assays?
TNAP inh noacc: -9; TNAP act hiacc: 1; Efa HMGR inh: 3; bIAP inhibitor: 4; TNAP inh hiacc: 0; bIAP act: 1

Results for O=C(CSc1ncnc2c1oc1ccccc12)Nc1ccccc1C(F)(F)F ?
TNAP inh noacc: -6; TNAP act hiacc: 1; Efa HMGR inh: 3; bIAP inhibitor: 13; TNAP inh hiacc: -2; bIAP act: 0.9

How did NC(=O)N1c2ccccc2CC(=O)c2ccccc21 do in these assays?
TNAP inh noacc: -5&-7; TNAP act hiacc: 1&1.1; Efa HMGR inh: -3&3; bIAP inhibitor: 0&-2; TNAP inh hiacc: 1&-5; bIAP act: 1&1

Results for CNCCc1ccccn1 ?
TNAP inh noacc: -8; TNAP act hiacc: 1; Efa HMGR inh: -1; bIAP inhibitor: 1; TNAP inh hiacc: -1; bIAP act: 1

How did Cn1c(Cc2ccccc2)[n+](C)c2ccccc21 do in these assays?
TNAP inh noacc: -16; TNAP act hiacc: 1.1; Efa HMGR inh: 4; bIAP inhibitor: -4; TNAP inh hiacc: -8; bIAP act: 1

What do the screens show for `COc1cc(Cc2cnc(N)nc2N)cc(OC)c1OC`?
TNAP inh noacc: -11&-5; TNAP act hiacc: 1&1; Efa HMGR inh: 1&-2; bIAP inhibitor: 7&8; TNAP inh hiacc: -3&1; bIAP act: 0.9&0.9

What do the screens show for `COc1ccc(C(Cl)=C(c2ccc(OC)cc2)c2ccc(OC)cc2)cc1`?
TNAP inh noacc: -11; TNAP act hiacc: 1; Efa HMGR inh: 1; bIAP inhibitor: 1; TNAP inh hiacc: -4; bIAP act: 1

What do the screens show for `O=C1c2ccccc2C(=O)N1SC1CCCCC1`?
TNAP inh noacc: -12; TNAP act hiacc: 1; Efa HMGR inh: 2; bIAP inhibitor: 2; TNAP inh hiacc: -4; bIAP act: 1

Results for O=C(CCCN1CCC(O)(c2ccc(Cl)cc2)CC1)c1ccc(F)cc1 ?
TNAP inh noacc: 31&45; TNAP act hiacc: 0.9&0.9; Efa HMGR inh: -1&1; bIAP inhibitor: 10&-8; TNAP inh hiacc: 10&8; bIAP act: 0.9&1.1

Brought forward from above: 2 entries, then new ones.
What do the screens show for `O=C1c2ccccc2C(=O)N1SC1CCCCC1`?
TNAP inh noacc: -12; TNAP act hiacc: 1; Efa HMGR inh: 2; bIAP inhibitor: 2; TNAP inh hiacc: -4; bIAP act: 1

Results for O=C(CCCN1CCC(O)(c2ccc(Cl)cc2)CC1)c1ccc(F)cc1 ?
TNAP inh noacc: 31&45; TNAP act hiacc: 0.9&0.9; Efa HMGR inh: -1&1; bIAP inhibitor: 10&-8; TNAP inh hiacc: 10&8; bIAP act: 0.9&1.1

How did CCCc1nc2c(C)cc(-c3nc4ccccc4n3C)cc2n1Cc1ccc(-c2ccccc2C(=O)O)cc1 do in these assays?
TNAP inh noacc: -2; TNAP act hiacc: 1; Efa HMGR inh: 4; bIAP inhibitor: 6; TNAP inh hiacc: -2; bIAP act: 0.9

What do the screens show for `CN(C)CCC(c1ccccc1)c1ccccn1` (configuration not stated)?
TNAP inh noacc: -9; TNAP act hiacc: 1; Efa HMGR inh: 0; bIAP inhibitor: 11; TNAP inh hiacc: -4; bIAP act: 0.9

How did CC/C(=C(/CC)c1ccc(O)cc1)c1ccc(O)cc1 do in these assays?
TNAP inh noacc: -1; TNAP act hiacc: 1; Efa HMGR inh: 1; bIAP inhibitor: 3; TNAP inh hiacc: 3; bIAP act: 1

Results for CS(=O)(=O)Nc1ccc([N+](=O)[O-])cc1Oc1ccccc1 ?
TNAP inh noacc: -2; TNAP act hiacc: 1; Efa HMGR inh: 0; bIAP inhibitor: 16; TNAP inh hiacc: 4; bIAP act: 0.8

Results for O=C1CC2(CCCC2)CC(=O)N1CCCCN1CCN(c2ncccn2)CC1 ?
TNAP inh noacc: -4; TNAP act hiacc: 1; Efa HMGR inh: -4; bIAP inhibitor: 5; TNAP inh hiacc: 2; bIAP act: 0.9

How did COc1cccc2c1C(=O)c1c(O)c3c(c(O)c1C2=O)C[C@@](O)(C(C)=O)C[C@@H]3O[C@H]1C[C@H](N)[C@H](O)[C@H](C)O1 do in these assays?
TNAP inh noacc: -21; TNAP act hiacc: 0.7; Efa HMGR inh: -2; bIAP inhibitor: 0; TNAP inh hiacc: 32; bIAP act: 1

What do the screens show for `Cn1cc[nH]c1=S`?
TNAP inh noacc: -9; TNAP act hiacc: 1; Efa HMGR inh: -8; bIAP inhibitor: -6; TNAP inh hiacc: -5; bIAP act: 1.1

What do the screens show for `COc1ccc(NS(=O)(=O)c2ccc(N)cc2)nn1`?
TNAP inh noacc: -3; TNAP act hiacc: 1; Efa HMGR inh: 6; bIAP inhibitor: 5; TNAP inh hiacc: 2; bIAP act: 0.9

An excerpt; rates above refer to the full screens.
